Mtb H37Rv: Mycobacterium tuberculosis H37Rv growth inhibition, putative kinase inhibitor library, confirmatory dose response (AID 2842); M. tuberculosis H37Rv growth inhibition; higher % means a stronger effect; some inactives read as strong as hits; inhibition, % at 10 µg/mL; hits with a dose series show IC90 in µg/mL; actives 5.2% (n = 24,000);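 active = confirmed in a dose series; inconclusive = mostly over 85% at the one dose but not retested; inactive = below 85% or not confirmed; about a fifth of its hits are not listed in these tables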;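 also: bacteria incubated one week before Alamar blue readout; 0% = bacteria only wells and 100% = bacteria with high antibiotic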
Starred values were filed as active, the others as inactive; ? = inconclusive.

SMILES	Mtb H37Rv
Cc1cc(Cl)cc2sc(N(CCCn3ccnc3)C(=O)c3ccco3)nc12	<0.2µg/mL*
CCn1c2c(c(=O)[nH]c1=O)C(c1cccs1)C1=C(CC(C)(C)CC1=O)N2 (stereo unspecified)	-9%
CCc1cc(-c2[nH]ncc2-c2nc3ccccc3n2C)c(O)cc1O	17%
CC(=O)Nc1ccc2nc(NC(=O)c3cc(Cl)sc3Cl)sc2c1	1%
CC(=O)c1ccc(NC(=O)CSc2nc(-c3ccc([N+](=O)[O-])cc3)nc3c2c(=O)n(C)c(=O)n3C)cc1	-6%
Cc1ccc(Nc2nc(N3CCN(Cc4ccccc4)CC3)nc3nccnc23)cc1Cl	2.7µg/mL*
CCS/C(N)=N/N=C/c1cc(Br)c(O)c(OC)c1	1%
CCS(=O)(=O)N1CCCC(C(=O)NCC2CCCO2)C1 (stereo unspecified)	-6%
CC1CCc2sc(NC(=O)c3cccc(Br)c3)c(C#N)c2C1 (stereo unspecified)	5%
COc1cc2ccccc2cc1C(=O)Nc1nnc(-c2cc(Cl)ccc2Cl)o1	28µg/mL*
CCN(C(=O)COc1ccccc1)C1CCS(=O)(=O)C1 (stereo unspecified)	0%
Cc1nc2ccccc2cc1C(=O)NCc1ccccn1	4%
COc1ccc(-c2ccc(SCC(=O)Nc3cccc(C(C)=O)c3)nn2)cc1OC	-1%
COc1ccc2c(c1)c(=O)c(S(=O)(=O)c1ccc(F)cc1)cn2Cc1ccccc1Cl	12%
CCOC(=O)C1CCN(C(c2ccccc2)c2sc3ncnn3c2O)CC1 (stereo unspecified)	8%

Next part; it opens with the 2 that closed the last part.
SMILES	Mtb H37Rv
COc1ccc2c(c1)c(=O)c(S(=O)(=O)c1ccc(F)cc1)cn2Cc1ccccc1Cl	12%
CCOC(=O)C1CCN(C(c2ccccc2)c2sc3ncnn3c2O)CC1 (stereo unspecified)	8%
COc1ccccc1Cn1cc(C(=O)c2ccccc2)c(=O)c2cc3c(cc21)OCO3	12%
O=C(CSc1ncnc2ccccc12)N1CCC(Cc2ccccc2)CC1	13%
Cc1ccn2c(NC(=O)Cc3cccc4ccccc34)c(-c3ccccc3)nc2c1	9%
NC(=O)c1c(NC(=O)c2ccc(-c3ccccc3)cc2)sc2c1CCCCC2	-1%
O=C(COc1ccc(Cl)cc1Cl)N(Cc1ccccc1)c1nnc(C23CC4CC(CC(C4)C2)C3)s1	14%
Cc1cccc(C)c1NC(=O)CSc1nc(-c2ccccc2Cl)nc2c1Cc1c(CO)cnc(C)c1O2	9%
NC(=O)/C(=N/Nc1ncnc2ccccc12)c1cccs1	44%
COc1ccc(-c2nnc(NC(=O)c3ccno3)o2)cc1OC	3%
O=C1C(=O)N(Cc2ccccc2)C(c2ccc([N+](=O)[O-])cc2)/C1=C(/O)c1ccc2c(c1)OCCO2 (stereo unspecified)	-10%
CN1C(=O)c2cccc(NC(=O)c3nc4ccccc4s3)c2C1=O	-6%
CCOc1ccc(N2CC(NC(=O)Nc3cccc(C)n3)CC2=O)cc1 (stereo unspecified)	8%
Cc1ccc(-c2csc(NC(=O)c3ccc(S(=O)(=O)N(C)C)cc3)n2)c(C)c1	83%
Cc1ccc2nc(NC(=O)CSc3nc4c(c(=O)n3-c3ccc(F)cc3)SCC4)sc2c1	79%
O=C(Oc1coc(CSc2nnc(NC(=O)c3cccs3)s2)cc1=O)c1ccc(F)cc1	-9%
CCc1cc2c(=O)n(CC(=O)NCc3ccco3)cnc2s1	0%

Reformatted in CSV form: entries from further up
smiles,Mtb H37Rv
Cc1cccc(C)c1NC(=O)CSc1nc(-c2ccccc2Cl)nc2c1Cc1c(CO)cnc(C)c1O2,9%
Cc1ccc2nc(NC(=O)CSc3nc4c(c(=O)n3-c3ccc(F)cc3)SCC4)sc2c1,79%
NC(=O)c1c(NC(=O)c2ccc(-c3ccccc3)cc2)sc2c1CCCCC2,-1%
NC(=O)/C(=N/Nc1ncnc2ccccc12)c1cccs1,44%
COc1ccc(-c2nnc(NC(=O)c3ccno3)o2)cc1OC,3%

Remaining list, next part.
SMILES	Mtb H37Rv
COc1ccc(N2CC(NC(=O)Nc3nc4ccc(C)cc4s3)CC2=O)cc1 (stereo unspecified)	-6%
CCOC(=O)c1nn(-c2ccc(C(F)(F)F)cc2)c(=O)c2c(NC(=O)C3CCCCC3)scc12	13%
Nn1c(SCc2ccccn2)nncc1=O	-14%
O=C(CSc1ncnc2c1oc1ccccc12)Nc1ccccc1F	98%
CN=C1SC(CC(=O)Nc2ccc(N(C)C)cc2)C(=O)N1C (stereo unspecified)	-5%
CCOc1ccc(NC2CC(=O)N(C)C2=O)cc1 (stereo unspecified)	58%
O=C(Nc1ccc(S(=O)(=O)N2CCOCC2)cc1)C(c1ccccc1)c1ccccc1	21%
CCOc1ccc2c(c1)c(=O)c(C(=O)c1ccccc1)cn2Cc1ccc(OC)cc1	65%
CC1(C)Cc2c(sc(NC(=O)c3cc(Cl)ccc3Cl)c2C(N)=O)C(C)(C)N1	22%
COc1cccc(NC(=O)CSc2nc(-c3ccco3)nc3c2c(=O)n(C)c(=O)n3C)c1	-16%
CCOC(=O)c1nn(-c2ccc(C(F)(F)F)cc2)c(=O)c2c(NC(=O)c3cccc(C)c3)scc12	2%
O=C1CCc2cc(S(=O)(=O)Nc3cccc(Cl)c3Cl)cc3c2N1CCC3	7%
COc1ccc(-c2nnc(NC(=O)COc3ccc4ccccc4c3)s2)c(OC)c1	-2%
CC(=O)N1CCc2c(sc(NC(=O)c3ccccc3Oc3ccccc3)c2C(N)=O)C1	18µg/mL*
O=C(Nc1c(C(=O)Nc2ccc(F)c(F)c2)oc2ccccc12)c1cccc([N+](=O)[O-])c1	-1%
COc1ccc(OCC2c3cc(OC)c(OC)cc3CCN2C(=O)c2ccccc2F)cc1 (stereo unspecified)	-5%
Fc1cccc2sc(N3CCN(c4ccccc4)CC3)nc12	8%
CCCCC(=O)Nc1nnc(-c2ccc3c(c2)CCCC3)o1	3µg/mL*
COc1ccc(C(=O)Nc2nc3ccc4nc(SC)sc4c3s2)c(OC)c1	-4%
CCOc1ccc(C(=O)Nc2nnc(-c3ccc(F)cc3)s2)cc1	2%
CC(C)C(=O)Nc1nc(-c2ccccc2)c(C(=O)c2ccccc2)s1	27%
Nc1ncnc(NN2CCOCC2)c1[N+](=O)[O-]	-1%
CCOc1ccc(C(=O)c2cn(Cc3cccc(C)c3)c3ccc(OC)cc3c2=O)cc1	3%
O=C(CCOc1ccccc1)Nc1nc2ccc(Br)cc2s1	90%
CC(=O)Cn1c(=O)c2c(nc3n(-c4ccc(C(F)(F)F)cc4)c(C)c(C)n23)n(C)c1=O	-4%
COc1ccc(C(=O)c2cn(Cc3cccc(C)c3)c3cc4c(cc3c2=O)OCCO4)cc1OC	39%
O=C(CSc1ccc(-c2ccc3c(c2)OCO3)nn1)NCCc1ccccc1	-6%
CCN1C(=O)c2cccc3c(S(=O)(=O)Nc4ccc(C)cn4)ccc1c23	-1%
CCOc1cc(-c2nnc(NC(=O)C(C)C)o2)cc(OCC)c1OCC	9.1µg/mL*
Cc1ccc(C(=O)c2cn(CC(=O)Nc3ccc(F)cc3)c3cc4c(cc3c2=O)OCO4)cc1	5%

The final 4 records of the section above are carried over, then new ones follow.
SMILES	Mtb H37Rv
O=C(CSc1ccc(-c2ccc3c(c2)OCO3)nn1)NCCc1ccccc1	-6%
CCN1C(=O)c2cccc3c(S(=O)(=O)Nc4ccc(C)cn4)ccc1c23	-1%
CCOc1cc(-c2nnc(NC(=O)C(C)C)o2)cc(OCC)c1OCC	9.1µg/mL*
Cc1ccc(C(=O)c2cn(CC(=O)Nc3ccc(F)cc3)c3cc4c(cc3c2=O)OCO4)cc1	5%
CCOC(=O)CCC(=O)N1CCNC(=O)C1	-3%
COc1ccc(NC(=O)c2oc3ccccc3c2NC(=O)c2ccc(Br)cc2)cc1	11%
Cc1cc(C)c2nc(NC(=O)c3ccc4ncsc4c3)sc2c1	5%
CC1CCCCN1S(=O)(=O)c1ccc(C(=O)Nc2nnc(-c3cccs3)o2)cc1 (stereo unspecified)	-8%
CCOC(=O)c1nn(-c2ccccc2)c(=O)c2c(NC(=O)c3ccccc3Br)scc12	1%
Cc1ccc(Cn2c(SCC(N)=O)nc3c2c(=O)[nH]c(=O)n3C)cc1	14%
CCCn1c(N2CCN(CC(N)=O)CC2)nc2c1c(=O)[nH]c(=O)n2C	0%
CC(C)Oc1ccc(C(=O)Nc2nnc(-c3ccccc3)s2)cc1	6%
O=C(CN1C(=O)c2ccccc2C1=O)Nc1nc(-c2ccccc2)c(-c2ccccc2)s1	-9%
COc1cc(OC)cc(-c2nnc(NC(=O)c3cc(=O)c4ccccc4o3)o2)c1	-1%
CCOCCn1c(N2CCN(Cc3c(F)cccc3Cl)CC2)nc2c1c(=O)[nH]c(=O)n2C	5%
O=C(CSc1ncnc2c1nnn2Cc1ccc(F)cc1)N1CCOCC1	20µg/mL*
CCC(CC)C(=O)NCCc1cc2c(C)ccc(C)c2[nH]c1=O	0%
Cc1ccc(-c2nnc(NC(=O)C3=COCCO3)o2)c(C)c1	7.3µg/mL*
CC(C)c1ccc(-c2nc(C(N)=O)c3[nH]c(=O)n(-c4ccc(C(C)(C)C)cc4)c3n2)cc1	1%
Cn1c(=O)[nH]c(=O)c2c1nc(N1CCN(c3ccccc3)CC1)n2CCCSc1nc2ccccc2s1	-5%
N#Cc1ccccc1NC(=O)Nc1c2ccccc2nc(=O)n1CCc1ccccc1	4%
NC(=O)c1ccsc1NC(=O)c1nc2ccccc2s1	3%
COc1ccc(CCNC(=O)CSc2nc(N)c(NC(=O)c3ccco3)c(=O)[nH]2)cc1OC	-8%
O=C(Nc1nnc(-c2ccc3c(c2)OCCO3)o1)c1ccc2c(c1)CCCC2	97%
CCCCc1nnc(NC(=O)c2ccc(C)cc2)s1	-2%
CC1CCc2c(sc(NC(=O)c3cc(Cl)sc3Cl)c2C(N)=O)C1 (stereo unspecified)	-6%
O=C(NCc1ccc2c(c1)OCO2)c1cnc2n(c1=O)CCS2	9%
CCOC(=O)C1CCN(C(c2cccc(Br)c2)c2sc3nc(C)nn3c2O)CC1 (stereo unspecified)	-2%
Cc1cccc(NC(=O)c2ccc(F)c(S(=O)(=O)N3CCC(C(N)=O)CC3)c2)c1	0%
Cn1c(=O)c2c(nc(SCc3ccccc3Cl)n2CCCc2ccccc2)n(C)c1=O	-11%
CC(=O)NCCc1nc2ccccc2n1Cc1ccccc1Cl	6%
CC(=O)N1CCc2c(sc(NC(=O)c3ccc4ncsc4c3)c2C#N)C1	-11%
COc1ccc2oc(=O)c(C(=O)Oc3ccc(C(C)=O)cc3OC)cc2c1	3%
Cn1c(SCC(=O)NCCCN2CCOCC2)nc2ccccc2c1=O	-9%
CCOC(=O)COc1cccc2c1CCN(Cc1ccc(F)cc1)C2=O	22%
N#Cc1ccc(-c2csc(NC(=O)c3ccc(Cl)cc3Cl)n2)cc1	56%
O=C(COc1ccc(Cl)cc1Cl)Nc1nnc(C23CC4CC(CC(C4)C2)C3)s1	-2%
CN(C)S(=O)(=O)c1ccc(C(=O)NNC(=O)c2ccc3c(c2)CCCC3)cc1	-11%
O=c1[nH]c(SCc2ccccc2Cl)nc2[nH]ncc12	-8%
NC(=O)CSc1nc(N)c(NC(=O)c2ccco2)c(=O)[nH]1	-4%
CCOC(=O)C1CCCN(C(=O)C(=O)c2c(C)n(C)c3ccccc23)C1 (stereo unspecified)	-10%
O=C(CSc1nnc2ccc(-c3ccccn3)nn12)Nc1ccc(Cl)c(Cl)c1	-13%
COC(=O)c1cc(C(=O)OC)cc(-n2c(C)cc(C(=O)CCl)c2C)c1	6.4µg/mL*
Cc1ccc(-c2nnc(NC(=O)c3ccc(S(=O)(=O)N4CCCC4)cc3)o2)c(C)c1	?
Cc1c(C)n2c(SCC(=O)Nc3ccc(OC(F)(F)F)cc3)nnc2[nH]c1=O	-5%
O=C(CSc1nc2sc3c(c2c(=O)[nH]1)CCCC3)NCCO	3%
O=c1ccc(-c2ccccc2)nn1CCNS(=O)(=O)c1ccccc1	-10%
Cn1c(=O)c2c(SCC(=O)NCc3ccc(F)cc3)nc(-c3cccs3)nc2n(C)c1=O	-2%
Cc1cccc(C(=O)NNc2ncnc3c2cnn3-c2ccc(Cl)c(Cl)c2)c1	8%
CCOC(=O)c1ccccc1NC(=O)CSc1nc(-c2ccccc2)ns1	-11%
N#Cc1c(NC(=O)c2cccc(Oc3ccccc3)c2)sc2c1CCN(Cc1ccccc1)C2	-3%
O=C(NCc1ccccn1)NC1CC(=O)N(c2ccc3c(c2)OCCO3)C1 (stereo unspecified)	17%
COc1ccc(OC)c(C(c2sc3nc(C)nn3c2O)N2CCN(CCO)CC2)c1 (stereo unspecified)	-5%
COc1cc(/C=C(\C#N)c2nc(-c3cccc([N+](=O)[O-])c3)cs2)ccc1OC(C)=O	-21%
COc1ccc(-c2nc(C(N)=O)c3[nH]c(=O)n(-c4ccc5c(c4)OCO5)c3n2)cc1	-9%
COC(=O)c1c(C)[nH]c(C(=O)CSc2nnc3sc4ccccc4n23)c1C	7%
Cn1c(=O)c2c(nc(N3CCN(Cc4ccccc4)CC3)n2CCSc2ncccn2)n(C)c1=O	-5%
CCOc1ccc(-c2csc(/C(C#N)=C\c3ccc(O)c(OCC)c3)n2)cc1	5%
COC(=O)c1ccc(-c2csc(NC(=O)c3cc(=O)c4ccccc4o3)n2)cc1	6%
O=C(NNc1nc2c(Cl)cccc2s1)c1c(F)cccc1F	-3%
O=C(/C=C\c1ccc2c(c1)OCO2)Nc1c(C(=O)Nc2ccc(Cl)cc2)oc2ccccc12	6%
COc1ccc2nc(Nc3sc4c(c3C(N)=O)CCC(C)C4)sc2c1 (stereo unspecified)	28µg/mL*
CCOC(=O)C1CCN(C(c2ccco2)c2sc3ncnn3c2O)CC1 (stereo unspecified)	-7%
COc1cccc(-n2ccnc2SCC(=O)Nc2ccc3c(c2)OCO3)c1	-8%
NC(=O)c1c(NC(=O)c2ccc(S(=O)(=O)N3CCCC3)cc2)sc2c1CCN(Cc1ccccc1)C2	-4%

Not all compounds are listed; count on the stated rates, not on these rows.
